# Anaer choline gr – choline-fed anaerobic bacterial growth inhibition. Gram-negative bacterium anaerobic choline minimal medium, absorbance growth; active compounds read low; many inactives read as strong as hits in the columns shown. calls only. 55,000 tested, 0.2% active;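 active = growth z-score on choline under -2 at 7 or 20 h with little or no fall on glycerol, limits in tiers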;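 note: stock transfer was 300 nL into about 50 µL; the organism is E. coli; final concentration not given here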
# Anaer choline gr early – further read-out of Anaer choline gr, marked with its call; z-score; measured here: choline growth z-score, timepoint 1;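 score of optical density at 7 h as mean of two plates; lower means less growth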
# Numbers without * were called inactive; i = inactive. The list is partial; count on the stated rates, not on these rows.
SMILES,Anaer choline gr,Anaer choline gr early
COc1ccc(C(=O)Cn2c(=O)n3nc(-c4ccccc4)nc3c3cc(OC)c(OC)cc32)cc1,i,0.19
Cc1ccccc1CNC(=O)CCC(=O)N1CCSc2ncccc21,i,-0.02
CN(Cc1ccccc1)C(=O)CC(=O)Nc1ccc2nc3n(c(=O)c2c1)CCCCC3,i,0.8
Cc1ccc2c(c1)NC(=O)c1cc(S(=O)(=O)N3CCCC3)ccc1O2,i,-0.42
CCCC(CCC)C(=O)Nc1cc(C)nn1-c1ncnc2c1cnn2-c1ccc(Cl)cc1,i,0.51
CCN(Cc1cc2ccccc2[nH]c1=O)S(=O)(=O)c1ccccc1,i,-0.72
CCOC(=O)c1[nH]c(C)c(S(=O)(=O)N2CCN(C3CCCCC3)CC2)c1C,i,-0.17
CCC1Oc2cc(S(=O)(=O)N3CCCC(C(=O)N4CCc5ccccc54)C3)c(C)cc2NC1=O (stereo unspecified),i,-0.03
CCOc1ccc(-c2noc(N3CCC(C(=O)N4CCN(CC)CC4)CC3)n2)cc1OC,i,-0.01
Cc1ccc2cnn(C(=O)Nc3ccc4c(c3)OCCO4)c2c1,i,0.4
CN(CCNc1ncnc2onc(-c3cc(F)cc(F)c3)c12)C1CCCCC1,i,-2.8
CCC(CC)C(=O)N1CCN(Cc2nc(-c3ccc(C)cc3)oc2C)CC1,i,-0.64
CCOc1ccc(C2CC(=O)Nc3c2cnn3-c2ccc3nnc(C)n3n2)cc1OC (stereo unspecified),i,1.1
O=C(NC1CCCCC1)C1CCCN(C(=O)c2cc(-c3ccncc3)n[nH]2)C1 (stereo unspecified),i,-1
Cc1cc(C)cc(N(CC(=O)N2CCCC2)S(=O)(=O)c2c(C)nn(C)c2C)c1,i,0.04
Cc1cc(C)cc(OC(=O)c2cc(-c3ccccc3)on2)c1,i,1.5
Cc1nc(N2CCCCC2)c2c(C)c(C(=O)N3CCOCC3)sc2n1,i,0.53
CCN(CC)CCCNC(=O)CCCN1C(=O)c2cccnc2Oc2ccc(Cl)cc21,i,-2.1
Cn1cccc1-c1cc2n(n1)CCC(=O)N2CC(=O)NCc1ccc(F)cc1,i,0.23
COC(=O)C1=C(C)NC(=O)NC1c1cn(-c2ccccc2)nc1-c1ccc(Br)cc1 (stereo unspecified),i,-0.33
O=S(=O)(c1cccn2c(SCc3c(F)cccc3Cl)nnc12)N1CCCCC1,i,-0.31
CCc1onc(C)c1C1CCCN1C(=O)Cn1nc(C(F)(F)F)c2c1CCCC2 (stereo unspecified),i,0.1
COc1ccc(OC)c(-c2[nH]ncc2CN2CCCC2c2cc(C(C)C)on2)c1 (stereo unspecified),i,0.08
C=CCn1c(=O)c2c(nc3n2CCN3c2ccc(OC)cc2)n(C)c1=O,i,0.33
CNC(=O)C1(n2cccc2)CCCCC1,i,0.4

# One compound at a time, as listed above.
# Shown for CCOC(=O)c1[nH]c(C)c(S(=O)(=O)N2CCN(C3CCCCC3)CC2)c1C : Anaer choline gr = i; Anaer choline gr early = -0.17
# Shown for CNC(=O)C1(n2cccc2)CCCCC1 : Anaer choline gr = i; Anaer choline gr early = 0.4
# Shown for CCN(Cc1cc2ccccc2[nH]c1=O)S(=O)(=O)c1ccccc1 : Anaer choline gr = i; Anaer choline gr early = -0.72

# Going on with the list:
SMILES,Anaer choline gr,Anaer choline gr early
CCCSc1nc2c(c(=O)[nH]1)C(c1ccc(C(C)C)cc1)C(C(=O)OC)=C(C)N2 (stereo unspecified),i,-0.07
O=S(=O)(c1ccccc1F)N1CCN(c2nc3cc(Br)ccc3n3cccc23)CC1,i,0.21
Cc1nn(-c2ccc3nnc(C)n3n2)c2c1C(c1ccccc1OCc1ccccc1Cl)CC(=O)N2 (stereo unspecified),i,0.35
CCOC(=O)Cn1cnc2c(-c3ccccc3)csc2c1=O,i,-0.88
CC1CN(C(=O)COc2ccccc2Cl)c2ccccc2NC1=O (stereo unspecified),i,-1.2
O=C(Nc1ccccc1)N1CCC(n2cnc3cc(Cl)ccc3c2=O)CC1,i,1
COc1ccc(NC(=O)Cn2c(C(=O)OC(C)C)cc3ccsc32)cc1,i,1.5
CC1Oc2cc(S(=O)(=O)N3CCN(C(=O)Nc4ccccc4)CC3)c(Cl)cc2NC1=O (stereo unspecified),i,0.8
Clc1ccc(-c2ccc(CNCc3ccc4c(c3)OCO4)o2)cc1,i,-3.7
CC(=O)Nc1ccc(C)cc1S(=O)(=O)N1CCCC(C)(C(=O)NCc2ccccc2)C1 (stereo unspecified),i,0.13
CCCc1ccc(C(=O)CC2(O)C(=O)Nc3ccc(C)cc32)cc1 (stereo unspecified),i,-0.18
COc1ccc(Nc2nc(-c3nnn(-c4cc(Cl)c(OC)cc4OC)c3C)ns2)cc1,i,-0.61
CC(=O)N(C)c1ccc(NC(=O)c2c(C)oc3ccc(OCc4ccccc4)cc23)cc1,i,0.09
CCNc1nc(C)cc(Nc2ccc(NC(=O)C(C)C)cc2)n1,i,-0.32
O=C(OCC1CCCO1)c1ccc2c(c1)N(Cc1ccc(F)cc1Cl)C(=O)c1ccccc1S2(=O)=O (stereo unspecified),i,0.18
CN(Cc1ccccc1)S(=O)(=O)c1cc(C(=O)N2CCCC2)cs1,i,-2.1
Cc1nn(C)c(=O)c2cc(S(=O)(=O)NCc3ccco3)cn12,i,0.17
O=C(NCCN1CCOCC1)c1cnn2c(C(F)(F)F)cc(-c3ccccc3)nc12,i,-0.26
CN(Cc1ccccc1)C(=O)c1ccc(-c2ccc(F)cc2)nc1,i,0.29
O=C(Cc1cccc(F)c1)Nc1ccc(SCc2nnc(-c3ccccc3)o2)cc1,i,0.47
CCc1cc2c(N(C)Cc3ccccc3)ncnc2s1,i,-1.8
CCOc1ccccc1NC(=O)C1CCCN(S(=O)(=O)Cc2ccccc2C)C1 (stereo unspecified),i,-0.97
O=c1cc(-c2cc3c(ccc4ccccc43)oc2=O)c2ccc(O)cc2o1,i,0.6
CC(C)NC(=O)N1CCCN(Cc2ccsc2)CC1,i,-0.47
COc1ccc(NS(=O)(=O)c2cc(-c3nnc(C(=O)N4CCCC4)o3)sc2C)c(OC)c1,i,-0.83

# Following part.
SMILES,Anaer choline gr,Anaer choline gr early
COc1ccc(OC)c(NS(=O)(=O)c2cc(-c3cc(C(F)(F)F)on3)sc2C)c1,i,0.98
O=C1COc2ccc(S(=O)(=O)N3CCN(C(=O)c4ccc(Br)cc4)CC3)cc2N1,i,-0.9
CCc1nc(SCc2noc(CCC(=O)Nc3ccc4c(c3)C(=O)N(C)C4=O)n2)n[nH]1,i,-0.88
COc1ccc(CSc2nccc3c2ccn3CC(=O)N2CCN(c3ccc(F)cc3)CC2)cc1,i,-0.56
Cc1csc(-n2[nH]c(C)c(CC(=O)Nc3cccc(Cl)c3)c2=O)n1,i,-1.4
O=S(=O)(c1cccc2nsnc12)N1CCN=C1N1CCN(c2ccc(F)cc2)CC1,i,-0.43
CC(C)(CC(=O)N1CCN(c2ccc(F)cc2)CC1)CC1=NS(=O)(=O)c2ccccc2N1,i,-0.83
O=S(=O)(NC1CCCCCC1)c1cc(-c2cc(C(F)(F)F)on2)cs1,i,-0.09
COc1ccc2sc(N(CCN(C)C)C(=O)c3ccc4ncsc4c3)nc2c1,i,-0.56
CCC(=O)C1=C(c2ccc(C(C)(C)C)cc2)N(C(=O)CC)n2cnnc2S1,i,0.92
Cc1ccc(N(CC(=O)NCCc2ccccc2)S(=O)(=O)N(C)C)cc1,i,0.68
Cc1sc2ncn3c(SCC(=O)Nc4ccc5c(c4)CCC5)nnc3c2c1C,i,1.6
O=S(=O)(Nc1ccc(-c2ccc(N3CCOCC3)nn2)cc1)c1ccc(F)cc1F,i,-1
Cc1ccc(-c2nc(CSCC(=O)NC3CCc4ccccc43)no2)cc1 (stereo unspecified),i,0.59
CC1(C(=O)NC2CCCCC2)Cn2c(c(-n3cccc3)c3ccccc32)C(=O)N1CCC1=CCCCC1 (stereo unspecified),i,0.38
COc1ccc(NC(=O)c2nnn(Cc3nc(-c4ccccc4OC)oc3C)c2C)cc1,i,0.23
CC1=C(C(=O)Nc2ccccc2)C(c2ccc(C(=O)O)cc2)n2nc(SCC(=O)c3ccc(C)cc3)nc2N1 (stereo unspecified),i,-0.29
O=C(CN1C(=O)CN(C(=O)NCc2ccccc2)c2ccccc21)NCC1CCCO1 (stereo unspecified),i,-0.33
Cc1ccc(CNS(=O)(=O)c2cc(C(=O)N3CCC(C)CC3)cs2)o1,i,0.17
CCOC(=O)CC1(NC(=O)N2CCCn3nc(-c4ccncc4)cc3C2)CCCCC1,i,1.1
Cc1ccc(-n2nc(N3CCN(C(=O)Nc4ccc5c(c4)OCO5)CC3)ccc2=O)cc1,i,0.07
O=C(Nc1ccc(OCc2cc(=O)n3[nH]cnc3n2)cc1)c1ccc(Cl)cc1,i,-0.1
O=C(c1ccc(Br)cc1)N1CCC(c2nc(-c3ccccc3)no2)CC1,i,-1.2
CCCSc1c(C(C)C)cnc2c1c(=O)n(C)c(=O)n2C,i,-0.53
COc1ccccc1NC(=O)Nc1ccc(Nc2cc(N3CCCC3)nc(C)n2)cc1,i,0.65

# Continuation.
SMILES,Anaer choline gr,Anaer choline gr early
CC(=O)Nc1cc(C(=O)N2CCN(c3ccc(-c4noc(C)n4)cc3)CC2)ccc1C,i,1.7
O=C(NCCCO)C(=O)NCc1n[nH]c(=O)c2ccccc12,i,-0.77
O=C(CNC(=O)c1cccc(Cl)c1)NCc1cscn1,i,-1.6
CCn1c(=O)c(-c2noc(CCC(=O)Nc3ccccc3F)n2)nn(-c2ccccc2)c1=O,i,-0.76
COC(=O)c1c(C)oc2ccc(O)c(CN3CCCCC3C)c12 (stereo unspecified),i,-0.57
COc1ccc(Cl)cc1S(=O)(=O)Nc1cc(C(=O)O)cnc1N1CCCC1,i,0.22
CN(C)CCNC(=O)c1cc2n(n1)CC(C)(C(=O)NC1CCCC1)N(C)C2=O (stereo unspecified),i,0.07
CN(C)c1ccc(-c2nc3cnccn3c2Nc2ccc(C(=O)O)cc2)cc1,i,-0.48
CCCCC12CN(C(=O)CC)CC(C)(CN(C(=O)CC)C1)C2=O,i,0.26
COc1ccc(OC)c(NS(=O)(=O)c2cc(-c3nc(C(C)(C)C)cs3)cs2)c1,i,0.08
CCCNC(=O)C1CCN(c2nc(C3CCC3)nc3csc(C)c23)CC1,i,-0.09
Cc1ccc(C)c(N2CCN(c3ncnc4nc[nH]c34)CC2)c1,i,0.53
COc1ccc(S(=O)(=O)N2CCc3cc4ccc(OC)cc4nc32)cc1,i,0.75
O=C(Cn1c(=O)n(-c2ccc(CC(=O)NC3CC3)cc2)c(=O)c2ccccc21)NCCc1ccccc1,i,0.89
Cc1nc(N2CCN(c3ccccc3F)CC2)[nH]c(=O)c1CCC(C)C,i,1.4
CCn1c(C)c(C)c2cc(C(=O)NC)ccc21,i,0.49
CCn1cnc(S(=O)(=O)N2CCC(C(=O)N3CCc4ccccc43)CC2)c1,i,-0.57
O=C(c1ccc(N2CCCC2)c(S(=O)(=O)N2CCCC2)c1)N1CCN(c2ccc(F)cc2)CC1,i,-1
COc1ccc(CN2CCCC2c2cc(C)on2)c(OC)c1 (stereo unspecified),i,0.26
CCN(CC)C(=O)c1ccc(-c2nc3cc(NS(=O)(=O)c4ccc(C)c(C)c4)ccc3n2C)cc1,i,-0.56
CCOc1ccc(Br)cc1C1Nc2ccc(C)cc2[C@H]2OCC[C@@H]12 (stereo partly specified),i,0.23
Cc1ccc(-c2nccc(Nc3ccc(C(=O)Nc4ccc5c(c4)OCO5)cc3)n2)cc1,i,-0.12
CCc1ccccc1NC(=O)C1CCCCN1S(=O)(=O)c1ccc2c(c1)nnn2CCOC (stereo unspecified),i,-0.97
O=C(Nc1cccc(-c2noc(C3CCC3)n2)c1)C1CC(=O)N(c2ccccc2)C1 (stereo unspecified),i,1.7
Cc1ccc(-c2cc(C(=O)N3CCC(C(N)=O)CC3)no2)cc1,i,-0.45

# More structures
SMILES,Anaer choline gr,Anaer choline gr early
COc1ccc(CCNc2nc(C)nc3c(-c4ccc(Cl)cc4)noc23)c(OC)c1,i,0.29
Cc1nn(-c2nc3ccccc3s2)c2c1C(c1cc(Br)cs1)CC(=O)N2 (stereo unspecified),i,1.8
Cc1oc2ncnc(N3CCOCC3)c2c1C(=O)NCCCN(C)c1ccccc1,i,-1.2
CC(C)Oc1ccc(CNC(=O)c2ccc(-n3nnc4cccnc43)cc2)cc1,i,0.55
CCOC(=O)c1ccccc1NC(=O)CSc1nnc2[nH]c(=O)cc(C)n12,i,0.24
NC(=O)c1c(-c2ccc(Cl)cc2)nc2n1CCS2(=O)=O,i,0.04
CC(C)CCn1c(CCCC(=O)NCc2ccccc2)nc2cccnc21,i,-0.09
O=S(=O)(NCCc1n[nH]c(Cc2ccc(F)cc2)n1)c1ccc(F)c(F)c1,i,-0.35
Cc1nc2c3ccccc3n(Cc3ccccc3)c(=O)n2n1,i,-1
O=S(=O)(NCCc1ccccc1)c1ccccc1-c1nc(-c2ccccc2)no1,i,-0.57
CCC1Cn2c(C(=O)NCCC3=CCCCC3)cc3cccc(c32)O1 (stereo unspecified),i,-0.54

# Structural class, the compounds so far containing a COOH group.
SMILES,Anaer choline gr,Anaer choline gr early
CC1=C(C(=O)Nc2ccccc2)C(c2ccc(C(=O)O)cc2)n2nc(SCC(=O)c3ccc(C)cc3)nc2N1 (stereo unspecified),i,-0.29
COc1ccc(Cl)cc1S(=O)(=O)Nc1cc(C(=O)O)cnc1N1CCCC1,i,0.22
CN(C)c1ccc(-c2nc3cnccn3c2Nc2ccc(C(=O)O)cc2)cc1,i,-0.48

# Compound activity from PubChem.
